Ba CapD inh: blocks the Bacillus anthracis CapD enzyme; z-score (no concentration beside the values); 140,000 tested, 0.23% active; purified CapD enzyme, fluorescence intensity read-out; active compounds read low; some hits fall short of the stated cut;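 active means z-score under -4 in either of two replicates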;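 further: stock transfer was 100 nL into about 40 µL; score is relative to mean and spread of the plate; one replicate is shown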
AID504770: growth inhibitors of E. coli YBA685 in a screen for V. cholerae RctB (chromosome II replication) inhibitors; 130,000 tested, 0.27% active; AID 504770; E. coli YBA685 rctB-dependent plasmid, OD600 growth, 3 h; active compounds read low; z-score (no concentration beside the values);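 active means z-score under -2 on both plates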;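 further: wells of about 30 µL received 100 nL stock; score is relative to mean and SD of the test wells; the first replicate is given; strong numbers were not always called active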
Active calls of the source: *; . = not tested or not shown; & = joins results of further samples. Not all compounds are listed (hit frequency here may not be typical).

Sequence of screens – AID504770, Ba CapD inh
CCCN1CCc2c(C)c(C#N)c3nc4ccccc4n3c21
→ -0.55, .
COc1ccc(/C=C2\SC(=S)N(CC(=O)Nc3ccccc3)C2=O)cc1
→ -0.1, -0.66
NC(=O)CCSc1nnc(SCC(=O)c2ccccc2)s1
→ -1.1, 0.055
O=C(O)c1ccccc1C(=O)N1CCCCC1
→ -0.55, 0.38
O=S(=O)(c1ccc2c(c1)OCCO2)N1CCCCC1c1cccnc1 (stereo not drawn)
→ 0.5, 0.3
O=C(Nc1ccccc1C(F)(F)F)N1CCOc2ccccc21
→ -0.6, -0.21
COc1cc(OC)c(C2=NOC(C(=O)NCC3CCCO3)C2)cc1Cl (stereo not drawn)
→ 0.05, 5.5
Fc1ccc(-n2nc(C(F)(F)F)cc2-c2cccs2)cc1
→ -0.8, -0.83
Cc1cc(C(=O)COc2ccccc2C(N)=O)c(C)n1C
→ 0.1, .
COc1cccc(CSc2ccc(S(=O)(=O)N3CCOCC3)cc2C(=O)NCc2ccco2)c1OC
→ ., -1.3
Cc1ccccc1C(=O)c1c[nH]c(C(=O)NCc2ccccc2)c1
→ -0.55, -0.29
COc1cc2c(cc1NS(=O)(=O)c1ccc(N3CCCC3=O)cc1)oc1ccccc12
→ 0.45, -0.27
Cc1cccc(COc2ccc3c(C)cc(=O)oc3c2)c1
→ -0.95, -0.54
Cc1[nH]c2c(N(Cc3cccc(Cl)c3)C(=O)c3ccccc3)cccc2c1C
→ ., -0.44
CCn1c(C)csc1=NC(=O)c1ccccc1
→ 0.1, 0.56
CC1(C)CN=C(NCc2cccnc2)S1
→ -0.45, 0.74
C(=NN1CCN(C2c3ccccc3-c3ccccc32)CC1)c1ccco1
→ -0.4, -0.14
N#CC(=Nc1cccnc1)C1=C(O)c2ccccc2C1=O
→ -0.2, -2.5
Cc1cc(C(F)(F)F)n(-c2nc(CCl)cs2)n1
→ -0.65, 0.96
CN(C)c1ccc(C2Nc3cc(Cl)ccc3O2)cc1 (stereo not drawn)
→ ., 5.5
CNC(=O)Oc1c(Cl)cc(Cl)cc1Cl
→ 1, .
Cc1ncc([N+](=O)[O-])n1CCOC(=O)NNC(=O)c1ccccc1-n1cccc1
→ ., -1.2
CCn1c(C(C)(C)C)nc2ccccc21
→ -0.6, 0.09
O=C(CC1OC(=O)c2ccccc21)c1ccc(-n2ccnc2)cc1 (stereo not drawn)
→ 1.1, -0.49
O=C(O)CCCc1cc2cc(Br)ccc2o1
→ -0.15, 1.7
CCCC(=O)N1CCN(c2ccc(NC(=O)c3cc(OC)c(OC)c(OC)c3)cc2Cl)CC1
→ -0.9, -0.78
CCC(=O)c1ccc(-c2ccccc2F)cc1
→ -0.6, 0.15
COc1ccccc1/C=C1/SC(=O)N(CN2CC(C)OC(C)C2)C1=O (stereo not drawn)
→ 1.1, -0.26
CCCCC(C(=O)Nc1ccc(Br)cc1)N1C(=O)C2C3c4ccccc4C(c4ccccc43)C2C1=O (stereo not drawn)
→ ., 0
Cc1cccn2c(=O)c(/C=C3\SC(=S)N(C(C)C)C3=O)c(N3CCN(Cc4ccccc4)CC3)nc12
→ ., -0.18
C=CCn1c(=N)n(CCOc2ccccc2Cl)c2ccccc21
→ -0.85, 0.07
CC(=O)N1c2ccccc2CC1C (stereo not drawn)
→ 0.35, -0.075
O=C(O)CN(CC(=O)Nc1cccnc1)Cc1ccccc1
→ 0.7, 0.21
Cc1nnc(NC(=O)c2ccc(S(=O)(=O)N(CC(C)C)CC(C)C)cc2)o1
→ 0.25, .
CCC(=O)N1CCc2ccccc21
→ -0.4, 0.21
O=C1c2ccccc2C(=O)N1c1nccs1
→ 0.4, 0.3
Cc1cc(S(=O)(=O)NCc2c(N(C)C)cccc2N(C)C)c(Cl)cc1Cl
→ 0.5, -0.08
O=C(C1CCN(c2ccc(C(F)(F)F)cn2)CC1)N(C1CC1)C1CCN(Cc2ccccc2)CC1
→ ., 3.3
NC(=O)CSc1nnnn1C1CCCCC1
→ -0.35, .
CS(=O)(=O)N1CCN(CCc2ccccc2)CC1
→ 0.1, 0.095
O=C(NCc1ccsc1)c1ccc2c(c1)CCO2
→ 0.3, -1.2
O=C(CCSc1ccc(C(F)(F)F)cc1)c1ccco1
→ -0.3, -0.29
CC1CCCCN1S(=O)(=O)c1ccc(NC(=O)COc2ccc(F)cc2)cc1 (stereo not drawn)
→ -0.55, -0.29
CN1CCCC(OC(=O)c2cc(F)c(F)c(F)c2F)C1 (stereo not drawn)
→ 0.15, 0.065
Cc1ccccc1OCc1nc2ccccc2n1C
→ 1.1, -1.4
N#Cc1ccc(NC(=O)/C=C/c2ccccc2)cc1
→ 0.45, -0.095
O=C1NC(c2ccc(Cl)cc2)c2c1oc1ccccc1c2=O (stereo not drawn)
→ -1.2, .
CC1CCN(CC(=O)Nc2ccc(F)cc2)CC1
→ 0.35, .
COc1ccccc1C1CCN(C(=O)c2cnn(-c3ccccc3)c2C)CC1
→ 0.7, -0.65
Cc1nnc(SCc2cc(=O)c3c(=O)n(-c4ccccc4)[nH]c3[nH]2)s1
→ -0.5, -0.57

Carrying on:
Sequence of screens – AID504770, Ba CapD inh
CCOc1cc(-n2c(C)ccc2C)c(OCC)cc1N1CCOCC1
→ 0.05, .
Cc1cc2nc(SCc3ccc(F)cc3)[nH]c2cc1C
→ 1.8, 0.51
O=C(c1cccc(S(=O)(=O)N2CCCCC2)c1)N1CCN(c2ccccc2)CC1
→ 1.5, -0.94
CC(=O)N1C(Nc2ccc(Cl)cc2)CCN1c1ccccc1 (stereo not drawn)
→ -0.15, .
Cc1cccc(-n2c3c(c(=O)[nH]c2=S)CN(CCc2ccccc2)CN3)c1
→ 1.2, -0.16
COC(=O)/C=C1\SC(=NC(=O)c2ccc(OC)cc2)NC1=O
→ 2.2, 2.4
CCC(=O)Nc1cccc2cccnc12
→ 1.4, -0.34
Cn1cc(NC(=O)NCc2ccc3c(c2)OCO3)c2ccccc21
→ -0.05, .
O=C(Nc1ccc(Cl)cc1)c1cnn2c(C(F)F)cc(C3CC3)nc12
→ -0.8, 0.23
COc1ccc(OCc2nc3c4c(C)c(C)oc4ncn3n2)cc1
→ 0.75, 1
O=C(Cc1cn2ccsc2n1)N/N=C/c1c(Cl)cccc1Cl
→ -0.45, .
CCNCC(=O)Nc1ccccc1C(F)(F)F
→ -1.2, .
Nc1ccc(S(=O)(=O)Nc2nccs2)cc1
→ 0.55, -0.14&-0.18
CCCCC(C(=O)Nc1ccc(F)cc1)N1C(=O)C2C3c4ccccc4C(c4ccccc43)C2C1=O (stereo not drawn)
→ ., -0.37
O=C(c1c[nH]c(=O)n(-c2ccccc2)c1=O)N1CCc2ccccc21
→ -0.45, .
CCN(CC)S(=O)(=O)c1cccc(-c2nc(=S)[nH][nH]2)c1
→ 1, .
COc1ccc2c(c1)CCC1C2=NN(C(C)=O)C1c1ccccc1F (stereo not drawn)
→ 1.1, 24
CN(CCc1ccccn1)C(=O)c1cc2nc(-c3ccc4c(c3)OCO4)cc(C(F)(F)F)n2n1
→ ., -0.74
CC(C)(C)C(=O)/C(C#N)=c1\s/c(=C\c2ccncc2)c(=O)n1CCCN1CCOCC1
→ 0.45, .
O=S(=O)(c1ccc(Br)cc1)N1CCNCC1
→ 0.5, 0.32
O=S1(=O)CCN(Cc2ccc(OC(F)(F)F)cc2)CC1
→ 0.35, -0.035
Cc1ccc(NC(=O)c2sc(=S)n(-c3ccccc3C)c2N)cc1
→ ., 0.09
Cc1ccccc1C(=O)Nc1c(C)[nH]c(=O)[nH]c1=O
→ 0.55, 0.45
O=S(=O)(NCc1ccccn1)c1ccc(Cl)s1
→ ., -0.23
O=C(CCc1ccccc1)c1ccccc1
→ 0.4, -0.29
COCCn1c(=S)[nH]c2cc(C(=O)N3CCC(O)(c4cccc(C(F)(F)F)c4)CC3)ccc2c1=O
→ ., -0.42
Cc1ccccc1NC(=O)c1csc2c1CCCC2
→ -0.25, 0.32
O=C(O)CNS(=O)(=O)c1cccc(C(F)(F)F)c1
→ 0.55, .
O=C(NC1CCSC1=O)c1ccccc1 (stereo not drawn)
→ -0.5, -0.15
O=C1N(CN(CCc2ccccc2)Cc2ccccc2)c2ccccc2C12OCCCO2
→ -0.45, -0.47
Cc1nc2ccc(NC(=O)c3ccccc3C)cc2o1
→ -0.3, 0.045
Cc1cc(C)n(C(=O)c2ccc(NC(=O)C3CC3)cc2)n1
→ 0.1, -0.36
Cc1ccc(C(=O)n2cnc3ccccc32)cc1
→ 0.85, -0.33
CC(N)(C(=O)O)c1cccc(OCc2cccc(Cl)c2)c1 (stereo not drawn)
→ -0.55, 0.015
O=C(CN1CCOc2ccccc21)NC1CCN(Cc2ccccc2)CC1
→ -0.95, -0.43
O=C1NC(=O)N(c2ccc3c(c2)OCO3)C(=O)/C1=C/c1ccsc1
→ -0.2, .
COc1cccc(NC(=S)N2CC(C)OC(C)C2)c1 (stereo not drawn)
→ ., 0.6
Ic1ccc(I)s1
→ ., 0.32
CCc1nnc(NC(=O)C2CCCN2S(=O)(=O)c2ccccc2)s1 (stereo not drawn)
→ -3.3, -0.89
CCOc1ccc(OCC(O)CNC2CC(C)(C)NC(C)(C)C2)cc1 (stereo not drawn)
→ -0.65, .
Cn1c(=O)n(C)c2cc3c(cc21)[nH]c(=O)c(=O)n3Cc1ccccc1
→ -0.55, 1.1
COC(=O)C1Cc2ccccc2CN1Cc1c(O)ccc2ccccc12 (stereo not drawn)
→ -0.45, .
Cc1ccc(OCCn2cccc2/C=C2\C(=N)N3N=C(N4CCCC4)SC3=NC2=O)c(C)c1
→ 0.7, -0.2
CC1CCN(c2cc(N3CCC4(CC3)OCCO4)c3noc4c3c2C(=O)c2ccccc2-4)CC1
→ -0.3, -0.78
Clc1cc2c(cc1C=Nc1ccc(N3CCOCC3)cc1)OCO2
→ -0.5, .
CCn1cnc2c1c(=O)n(CC(=O)Nc1cccc(OC)c1)c(=O)n2Cc1ccccc1
→ 0.95, .
CCc1ccc(-c2n[nH]c(=O)c3ccccc23)cc1
→ 1, -0.4
COc1cccc(NC(=O)CSc2nc3ccccc3c(=O)n2CCCC(=O)N2CCN(c3ccccc3)CC2)c1
→ ., -0.07
C=CCn1c2ccccc2c2nnc(SCC(=O)NC(C)c3ccccc3)nc21 (stereo not drawn)
→ 2.8, -0.39
Cn1c(=NC(=O)/C=C/c2cccs2)sc2cc(Cl)ccc21
→ -0.8, -0.85

In the list so far, 2 have a tert-butyl group.
Sequence of screens – AID504770, Ba CapD inh
CCn1c(C(C)(C)C)nc2ccccc21
→ -0.6, 0.09
CC(C)(C)C(=O)/C(C#N)=c1\s/c(=C\c2ccncc2)c(=O)n1CCCN1CCOCC1
→ 0.45, .

Next section.
Sequence of screens – AID504770, Ba CapD inh
C=CCOc1ccc(CNCc2cccnc2)cc1OC
→ -0.45, 0.51
Oc1c(Cl)c(Cl)c(Cl)c2ccccc12
→ ., -0.35
COc1ccc(N2CCN(S(=O)(=O)c3ccc(F)c(C(=O)Nc4cccc(C)c4C)c3)CC2)cc1
→ ., 0.6
O=C(CC1OC(=O)c2ccccc21)Nc1ccccc1N1CCOCC1 (stereo not drawn)
→ -1, .
O=C1CCCC2=C1C(c1ccc(Cl)cc1)N=C(Nc1nc3ccccc3o1)N2 (stereo not drawn)
→ 0.5, 2.7
NC(=O)c1ccccc1NC(=O)COCC(=O)O
→ -0.7, .
Cc1nn(-c2ccc(Cl)cc2)c2sc(C(=O)N3C(C)CCCC3C)cc12 (stereo not drawn)
→ -0.15, .
CCC(C)NC(=O)c1cccc2c1C(=O)N(CC1CCCO1)C2 (stereo not drawn)
→ 2.7, -0.68
Cc1cc(-c2ccc(S(=O)(=O)N3CCC4(CC3)OCCO4)s2)n[nH]1
→ -0.9, -1.6
CC1(C)C2CCC1C(O)C2O (stereo not drawn)
→ 1.4, -0.22

A portion taken from the entries so far, as a working copy:
Sequence of screens – AID504770, Ba CapD inh
CCCN1CCc2c(C)c(C#N)c3nc4ccccc4n3c21
→ -0.55, .
COc1ccc(/C=C2\SC(=S)N(CC(=O)Nc3ccccc3)C2=O)cc1
→ -0.1, -0.66
NC(=O)CCSc1nnc(SCC(=O)c2ccccc2)s1
→ -1.1, 0.055
O=C(O)c1ccccc1C(=O)N1CCCCC1
→ -0.55, 0.38
O=S(=O)(c1ccc2c(c1)OCCO2)N1CCCCC1c1cccnc1 (stereo not drawn)
→ 0.5, 0.3

Following part.
Sequence of screens – AID504770, Ba CapD inh
O=C(OCCN1C(=O)c2ccccc2C1=O)c1cccs1
→ -0.3, 0.54
O=C(CN1c2cccc3cccc(c23)S1(=O)=O)NC1CC1
→ 1.5, 2.6
Cc1ccc(SCc2cc(=O)oc3cc(O)ccc23)cc1
→ -1, 0.37
CC1=CC(=C2C(=O)NC(=O)NC2=O)C=C(C(F)(F)F)N1C(C)C
→ 1.6, -1.6
COC(=O)C(Cc1ccccc1)NC(=O)C1CC(=O)N(c2cccc(C)c2C)C1 (stereo not drawn)
→ -0.5, .
COc1cc(OC)c(CN2CCC(NC(=O)OCc3ccc(C#Cc4ccccc4)s3)C2)c(OC)c1 (stereo not drawn)
→ ., -0.34
CC(=O)n1cc(/C=c2\sc3nc4cc(C)c(C)cc4n3c2=O)c(-c2ccc(F)cc2)n1
→ ., -0.095
O=C(COc1ccc(Cl)cc1)OCc1csc2c1C1CCN2CC1
→ -0.55, -1
CCC1(C)OC(=O)N(CCC#N)C1(C)O (stereo not drawn)
→ ., 2.4
